High-throughput results from PubChem BioAssay.
PKD1 kinase inh = blocks activity of human protein kinase D1; hit rate 0.056% among 200,000; Q15139; inhibition, %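 (about 10 µM by stock and volumes)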; PKD1 kinase fluorescence polarization assay;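 active = inhibition of 50% or more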;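 note: controls were vehicle for no effect and a reference inhibitor for full effect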
INS promoter inh = TRM-6 insulin promoter activity inhibition | AID 1273 | hit rate 0.9% among 130,000 | inhibition, % at 2 µM | TRM-6 cells (human fetal islet line), insulin promoter-eGFP reporter, imaging; reporter expression induced with tamoxifen;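 active = inhibition above the mean plus 3 SD, with well images judged a real hit on visual review, cut at about 60% in these data, passing the limit was not always enough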
HSV augment = increases HSV replication in cells; maximum fold increase; AID 1956; HSV replication augmentation in cells, fold increase; hit rate 0.005% among 220,000;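 active = peak rise of 1.5-fold or more in the series; tested in PC3 cells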;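 note: first round at 10 µM; read as green reporter fluorescence; hits show the peak of a series up to 25 µM; 1 = signal of infected wells without compound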
GALR2 ag = activates the human galanin receptor 2. O43603. GALR2-expressing cells, agonist activation read-out. activation, %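 (tested at 5 µM)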. hit rate 0.48% among 140,000. AID 803;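 active = above mean plus 3 SD of all compounds, about 5% in these data, not always enough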;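 note: 0% = vehicle buffer wells and 100% = reference agonist at full effect; tested in CHO reporter cells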
Target sequence (O43603 whole entry, looked up): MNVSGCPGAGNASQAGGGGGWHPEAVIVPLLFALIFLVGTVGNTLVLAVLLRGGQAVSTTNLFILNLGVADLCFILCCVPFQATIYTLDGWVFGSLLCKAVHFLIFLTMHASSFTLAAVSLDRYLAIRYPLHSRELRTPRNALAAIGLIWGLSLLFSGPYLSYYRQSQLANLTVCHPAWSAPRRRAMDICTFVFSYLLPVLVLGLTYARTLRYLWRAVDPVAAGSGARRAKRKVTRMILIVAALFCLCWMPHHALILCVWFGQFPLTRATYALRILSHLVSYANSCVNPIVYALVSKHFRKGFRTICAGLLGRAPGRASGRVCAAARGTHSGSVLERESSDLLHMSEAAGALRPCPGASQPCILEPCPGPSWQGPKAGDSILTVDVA
RGS16-Gao = RGS16-Galphao interaction regulator (human); O15492+P09471; bead-based flow cytometry RGS16-Galphao binding, fluorescence; actives lie on both sides; binding response (% of control), % at 10 µM; hit rate 0.38% among 220,000;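 active = below 25% or above 175%, edge rows of some plates excepted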;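 note: Galphao activated by GDP with aluminum fluoride before binding; 100% = wells without compound and 0% = beads without RGS; some results beyond the cut were filed as inactive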
Target sequence (O15492 whole entry, looked up): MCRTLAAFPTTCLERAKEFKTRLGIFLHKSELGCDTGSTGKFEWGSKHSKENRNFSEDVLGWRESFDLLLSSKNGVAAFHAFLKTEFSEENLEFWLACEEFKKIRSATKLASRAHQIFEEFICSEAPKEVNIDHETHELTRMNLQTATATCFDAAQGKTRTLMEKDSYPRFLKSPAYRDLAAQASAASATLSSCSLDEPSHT
Target sequence (P09471 whole entry, looked up): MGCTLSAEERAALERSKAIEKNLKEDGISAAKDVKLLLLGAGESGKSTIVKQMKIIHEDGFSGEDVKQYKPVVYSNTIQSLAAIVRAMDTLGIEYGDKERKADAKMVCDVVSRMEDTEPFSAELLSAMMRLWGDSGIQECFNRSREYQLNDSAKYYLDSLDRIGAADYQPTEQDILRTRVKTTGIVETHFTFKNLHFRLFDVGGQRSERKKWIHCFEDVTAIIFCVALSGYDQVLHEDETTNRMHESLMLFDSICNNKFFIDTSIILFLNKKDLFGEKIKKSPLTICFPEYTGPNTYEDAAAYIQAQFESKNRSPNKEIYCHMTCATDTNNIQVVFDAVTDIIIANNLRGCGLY
INS promoter inh cell count = second read-out of INS promoter inh, no call of its own (marks repeat the call); normalized cell count, %; measured here: cell count, toxicity; reference of the scale not given here;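 cells exposed to compound for 48 h; stained nuclei by imaging scaled within each plate; lower means fewer cells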
HSV augment primary fold = second read-out of HSV augment, no call of its own (marks repeat the call); fold increase; compound at 10 µM; measured here: primary screen fold increase 10 uM; tested in PC3 cells;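 GFP signal in the first replicate; 1 = infected wells without compound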
An asterisk follows results filed as active; i = inactive; / = not tested or not shown; & = joins results of further samples; [ ] = dose if it differs, or a comment.

SMILES | PKD1 kinase inh | INS promoter inh | INS promoter inh cell count | HSV augment | HSV augment primary fold | GALR2 ag | RGS16-Gao
O=C(Cn1cnc2ccccc2c1=O)NCc1cccs1 | -8 | -35 | 151 | i | 0.92 | / | 120
Cc1ccc(C(C(=O)NC2CCCCC2)N(Cc2ccco2)C(=O)Cn2cnc3ccccc32)cc1 (centres undefined) | 8 | 25 | 67 | i | 0.96 | 0.1 | 103
O=[N+]([O-])c1cccc(-c2nnc(-c3ccc4c(c3)OCO4)o2)c1 | -11 | 11 | 95 | i | 1 | -0.6 | 103
O=C(CSc1nnnn1-c1ccccc1)Nc1ncc(Cc2cc(Cl)ccc2Cl)s1 | -2 | 12 | 82 | i | 0.97 | -4.3 | 104
COc1cccc(C(=O)Nc2cccc(OCC(=O)O)c2)c1 | 7 | -20 | 86 | i | 0.45 | -5.4 | 100
CCC(=O)N1N=C2CC(C)(C)OCC2C1c1ccccc1 (centres undefined) | -13 | -20 | 84 | i | 0.98 | -1.4 | 82
O=C(NC1CCCCCC1)C1Cc2ccccc2CN1C(=O)c1ccco1 (centres undefined) | -3 | / | / | i | 1 | / | 98
CN1CCN(c2nc(-c3ccccn3)nc3ccccc23)CC1 | -4 | 27 | 43 | i | 0.65 | -1.8 | 108
COc1ccc(C2c3ccc4ccccc4c3Oc3ncn(CCN4CCOCC4)c(=N)c32)cc1OC (centres undefined) | / | / | / | i | 0.65 | / | 90
O=C(c1cccc(N2C(=O)C3CC=CCC3C2=O)c1)N1CCCc2ccccc21 (centres undefined) | -1 | -8 | 151 | i | 0.86 | / | 102
COC(=O)c1c(NS(=O)(=O)c2ccccc2)csc1C | / | / | / | i | 1.2 | / | 103
Cc1cc(C)nc(N(C#N)CC(=O)Nc2ccccc2)n1 | 1 | -12 | 140 | i | 1.1 | -0.3 | 116
CC(=O)N1CCN(C(=S)NCc2ccccc2)CC1 | -3 | / | / | i | 1.1 | -1.5 | 257*[activator]
CC(C)CCC(O)(CCC(C)C)C(=O)NNc1ccccc1 | -15 | -57 | 81 | i | 1.2 | -2.2 | 99
N#Cc1cc(-c2ccccc2)[nH]c1-c1nccc2ccccc12 | / | / | / | i | 0.86 | / | 101
Cc1cnnc2c1-c1nonc1CC2 | 2 | 27 | 72 | i | 1.1 | -3.9 | 73
Cc1cc(C)c(S(=O)(=O)N(CC(=O)O)C2CCCCC2)c(C)c1 | 1 | -3 | 61 | i | 0.88 | -1.2 | 97
O=C(Cc1ccc(-c2ccccc2)cc1)NC(c1ccccc1)c1ccccc1 | -7 | / | / | i | 0.91 | 0.5 | 99
CC(=O)c1csc(COc2ccccc2)n1 | / | / | / | i | 0.98 | / | 98
CC(=O)c1ccc(NC(=O)N2C3CCC2CC(O)(c2cccnc2)C3)cc1 (centres undefined) | 7 | -46 | 106 | i | 0.95 | / | 94
CCCn1cnc2c(=O)oc3ccccc3c21 | -2 | -6 | 114 | i | 1.1 | -3.6 | 102
COc1ccccc1C(C[N+](=O)[O-])c1c(N)n(C)c(=O)n(C)c1=O (centres undefined) | / | / | / | i | 0.75 | / | 94
Cc1nn(CC(=O)Nc2ccc(Cl)c(S(=O)(=O)N(C)C)c2)c(C)c1[N+](=O)[O-] | -5 | -8 | 100 | i | 0.9 | -1.8 | 73
COCCNC(=O)c1cnn2c(C(F)F)cc(-c3ccccc3)nc12 | 3 | / | / | i | 1.1 | / | 104
Cc1cc(C)c2cc(C(=O)N3CCC(Cc4ccccc4)CC3)[nH]c2c1 | / | / | / | i | 1.1 | / | 98

The closing three records of the section above open the next one.
SMILES | PKD1 kinase inh | INS promoter inh | INS promoter inh cell count | HSV augment | HSV augment primary fold | GALR2 ag | RGS16-Gao
Cc1nn(CC(=O)Nc2ccc(Cl)c(S(=O)(=O)N(C)C)c2)c(C)c1[N+](=O)[O-] | -5 | -8 | 100 | i | 0.9 | -1.8 | 73
COCCNC(=O)c1cnn2c(C(F)F)cc(-c3ccccc3)nc12 | 3 | / | / | i | 1.1 | / | 104
Cc1cc(C)c2cc(C(=O)N3CCC(Cc4ccccc4)CC3)[nH]c2c1 | / | / | / | i | 1.1 | / | 98
O=C(NCc1ccc(F)cc1)C(=O)NCC(c1ccco1)N1CCOCC1 (centres undefined) | -1 | -33 | 84 | i | 0.95 | / | 104
Cc1cc(N2CCN(C)CC2)nc2ccc(NC(=O)c3ccc4c(c3)OCO4)cc12 | -2 | -84 | 67 | i | 0.81 | -2.1 | 85
COc1ccccc1-c1nnc(NC(=O)OCC(C)C)s1 | -9 | 15 | 93 | i | 0.96 | -4.0 | 61
COCCNC(=O)[C@@]1(Cc2ccccc2)C=C[C@@H](C)N1C(C)=O | -12 | 59 | 87 | i | 1 | -2.0 | 101
S=C(NCC(c1ccco1)N1CCCC1)Nc1ccccc1 (centres undefined) | -3 | 26 | 123 | i | 0.96 | / | 95
C/C(CC(=O)Nc1ccc(C)c(Cl)c1)=N\NC(=O)Cc1cnc(N)s1 | -15 | / | / | i | 1 | / | 110
Cc1ccc(NC(=O)COC(=O)CN2C(=O)C3CCCCC3C2=O)cc1S(=O)(=O)N1CCOCC1 (centres undefined) | 0 | -20 | 137 | i | 0.92 | 0.5 | 92
Cc1cc(S(=O)(=O)N2CCN=C2c2ccccc2)ccc1F | 9 | 9 | 109 | i | 0.73 | -0.9 | 103
C=CCn1c(SCC(=O)c2cccs2)nc2sc(C)cc2c1=O | 3 | 62 | 129 | i | 0.88 | -0.6 | 104
CC(=O)N1CCn2c3c(c(=O)c4cc(C)ccc42)CCC31 (centres undefined) | -5 | / | / | / | / | -1.7 | 99
O=C(OCCN1CCCCC1)c1ccc(O)cc1 | -3 | -26 | 176 | i | 1 | 0.8 | 94
Cc1ccc(S(=O)(=O)Nc2ccc(N3CCCCC3)cc2)cc1 | 3 | / | / | i | 0.93 | / | 99
COc1ccc2c(Cl)c(C(=O)NN)sc2c1 | -6 | -49 | 64 | i | 1.1 | -1.5 | 65
O=C(Oc1ccc(C(=S)N2CCC(O)CC2)cc1)c1ccc(Cl)cc1 | 0 | / | / | i | 1 | / | 96
COc1ccc(/C=N/N(C(C)=O)c2nc(-c3ccc(C)cc3)cs2)cc1 | -10 | 6 | 111 | i | 0.98 | -1.8 | 104
Fc1ccc(SCCc2ccccn2)cc1 | / | / | / | i | 1.2&1 | / | 101&103
Cn1c(SCC(=O)c2ccc(O)c(O)c2)nnc1-c1cccs1 | / | / | / | i | 0.85 | / | 87
CC(=O)Nc1nc2n(n1)C(c1ccccc1)C=C(c1ccccc1)N2 (centres undefined) | 2 | / | / | i | 1.1 | -2.8 | 93
O=C(N/N=C/c1ccco1)c1cc(-c2cccc3ccccc23)n[nH]1 | 10 | 58 | 107 | i | 0.78 | -1.8 | 116
CCOC(=O)C1C(=O)NC(N2CCOCC2)=NC1C(C)C (centres undefined) | -7 | / | / | i | 0.91 | -1.4 | 100
Cc1ccc(NC(=O)c2c(Cl)nc3ccccn23)cc1 | 3 | / | / | i | 0.8 | / | 102
C=CCN1C(=O)/C(=C/c2ccc(OCC(=O)O)cc2)S/C1=N/c1nccs1 | 3 | 22 | 143 | i | 1.1 | -0.9 | 117
CCOc1cc(C(=O)O)cc(Cl)c1OC | -5 | 22 | 97 | i | 0.94 | -1.1 | 103
CC(=Nc1ccccc1C)C1=C(O)CSC1=O | -4 | -4 | 98 | i | 1.4 | -0.5 | 96
CCOc1ccccc1C(=O)Nc1nccs1 | -5 | 30 | 80 | i | 0.86 | -0.5 | 42

(list continues)
SMILES | PKD1 kinase inh | INS promoter inh | INS promoter inh cell count | HSV augment | HSV augment primary fold | GALR2 ag | RGS16-Gao
CN1CCN(Cc2cn[nH]c2-c2ccc(F)cc2F)[C@@H](c2ccccc2)C1 | 6 | -23 | 54 | i | 0.9 | / | 101
CC(C)CCNC(=O)c1cccc(C(=O)NCCC(C)C)c1 | -4 | -143 | 96 | i | 0.92 | -1.1 | 104
COc1cc(-c2nnc(CSc3nnc(Nc4ccc(C(C)C)cc4)s3)o2)cc(OC)c1OC | 9 | -22 | 168 | i | 0.91 | -0.7 | 98
CS/C(=C\C(=O)c1ccco1)Nc1ccccc1Cl | / | / | / | i | 1.1 | / | 108
CC(C)C(C)NC(=O)CN1C(=O)NC2(CCc3ccccc3C2)C1=O (centres undefined) | -8 | -18 | 75 | i | 0.97 | / | 101
CCn1c(=O)cc(OCC(=O)N2CCN(c3ccc(F)cc3)CC2)c2ccccc21 | -4 | 47 | 105 | i | 0.99 | / | 102
Cc1ccc(C(=O)N2CCCC(C(=O)c3ccc(Oc4ccccc4)cc3)C2)cn1 (centres undefined) | -6 | / | / | i | 1 | / | 104
C/C(=N\NC(=O)Cn1nc(C)c([N+](=O)[O-])c1C)c1ccc(Cl)s1 | / | / | / | i | 0.85 | / | 99
COC(=O)c1ccc(OC(=O)C2CC(=O)N(c3ccc(C)cc3C)C2)cc1 (centres undefined) | 0 | -32 | 178 | i | 0.98 | -1.8 | 91
O=C(Nc1cccc(F)c1)N1CCC(n2c(=O)[nH]c3ccccc32)CC1 | / | / | / | i | 1.1 | / | 99
CCN(c1ccccc1)S(=O)(=O)c1ccc(Cl)c(NC(=O)COC(=O)c2ccc[n+]([O-])c2)c1 | -5 | / | / | i | 0.91 | / | 94
CCN(CC)C(=O)CN(c1cccc(OC)c1)S(=O)(=O)c1ccc(C)cc1 | 2 | -44 | 115 | i | 0.85 | 0.4 | 105
O=C(COc1ccc2c(c1)OCO2)Nc1ccccc1C(F)(F)F | -4 | -18 | 60 | i | 1 | / | 101
Cc1cc(C(=O)C(=O)N(C)C)c(C)n1-c1ccc(Cl)c(Cl)c1 | -3 | / | / | i | 1 | / | 96
CCOC(=O)c1cccnc1SC(CC)C(=O)N1CCOCC1 (centres undefined) | -3 | / | / | i | 1 | -1.6 | 98
CN1CCN(C(CNS(=O)(=O)c2ccc(Cl)cc2)c2cccnc2)CC1 (centres undefined) | -4 | -12 | 133 | i | 1 | -0.7 | 164
CCCCCC(=O)c1c(C)[nH]c(C(=O)OCC)c1C | -2 | 25 | 81 | i | 0.82 | -1.4 | 96
CC(NC(=O)CN1CCC(C(N)=O)CC1)c1ccccc1 (centres undefined) | -9 | 3 | 98 | i | 0.72 | -2.5 | 104
CCC(C)(C)NC(=O)/C=C/c1cc(OC)c(OC)c(S(=O)(=O)N2CCc3ccccc32)c1 | -11 | -3 | 113 | i | 0.91 | / | 103
CCOc1cc(-c2noc(CCC(=O)Nc3cccnc3)n2)ccc1OC | -1 | 3 | 96 | i | 1 | -0.6 | 112
COc1ccc(N2C(=O)CC(Sc3n[nH]c(-c4ccc(C)cc4)n3)C2=O)cc1 (centres undefined) | 4 | / | / | i | 0.97 | / | 101
COC(=O)c1ccccc1NC(=O)CSc1nnnn1C1CCCCC1 | -1 | 4 | 66 | i | 0.95 | -0.1 | 98
CCn1c(=O)c([N+](=O)[O-])c(Cl)c2ccccc21 | -3 | 36 | 46 | i | 0.87 | / | 97
CCn1cc(-c2cc(C(F)(F)F)n3nc(C(=O)O)cc3n2)c(C)n1 | 4 | / | / | i | 1 | 0.4 | 101
Cc1nn(-c2ccccn2)c2c1C(c1ccccc1Cl)C1=C(N2)c2ccccc2C1=O (centres undefined) | 7 | -16 | 95 | i | 0.93 | 0.5 | 101
Cc1cc(NC(=O)CSc2nnc(N)s2)c([N+](=O)[O-])cc1C | -5 | 27 | 61 | i | 0.86 | / | 107
Cc1ccccc1C(=O)Nc1ccccc1C(=O)NCC(C)C | -9 | / | / | i | 0.92 | / | 102
O=C(NCCNC1CCC(c2ccccc2)CC1)c1ccc(F)cc1 (centres undefined) | 6 | / | / | i | 0.73 | / | 90
COc1cc(NC(=S)N2CCC(C(O)(c3ccccc3)c3ccccc3)CC2)cc(OC)c1 | 0 | 3 | 53 | i | 0.89 | 0.1 | 103
COC(=O)CCCCC1SCC2NC(=O)NC21O (centres undefined) | -8 | -10 | 157 | i | 0.89 | -2.5 | 100

Structural class: those above containing a nitro group on carbon.
SMILES | PKD1 kinase inh | INS promoter inh | INS promoter inh cell count | HSV augment | HSV augment primary fold | GALR2 ag | RGS16-Gao
O=[N+]([O-])c1cccc(-c2nnc(-c3ccc4c(c3)OCO4)o2)c1 | -11 | 11 | 95 | i | 1 | -0.6 | 103
COc1ccccc1C(C[N+](=O)[O-])c1c(N)n(C)c(=O)n(C)c1=O (centres undefined) | / | / | / | i | 0.75 | / | 94
Cc1nn(CC(=O)Nc2ccc(Cl)c(S(=O)(=O)N(C)C)c2)c(C)c1[N+](=O)[O-] | -5 | -8 | 100 | i | 0.9 | -1.8 | 73
C/C(=N\NC(=O)Cn1nc(C)c([N+](=O)[O-])c1C)c1ccc(Cl)s1 | / | / | / | i | 0.85 | / | 99
CCn1c(=O)c([N+](=O)[O-])c(Cl)c2ccccc21 | -3 | 36 | 46 | i | 0.87 | / | 97
Cc1cc(NC(=O)CSc2nnc(N)s2)c([N+](=O)[O-])cc1C | -5 | 27 | 61 | i | 0.86 | / | 107

Outcome played no part in choosing rows (roughly 1.3% active in at least one column).
